High-throughput results: PubChem BioAssay, ICCB-Longwood Screening Facility, Harvard Medical School
LANA-nucl inh: inhibitors of KSHV LANA-nucleosome binding, primary screen, biochemical, fluorescence polarization, FITC-LANA1-23, chicken nucleosomes; FITC-LANA1-23 / chicken nucleosome fluorescence polarization; hits give low values; z-score (test concentration not listed); actives 0.3% (n = 51,000); AID 720717, 2013;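 active = both repeat wells score below -2 in polarization z-score versus plate sample wells, excluding overly bright wells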;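 note: 100 nL library stock added to about 30 µL; numbers are from one replicate; some results filed as inactive read as strong as hits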
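test system = FITC-LANA peptide and chicken nucleosomes | amount = 240 nM purified chicken nucleosomes (480 nM peptide binding sites), final | reagent = 50 nM FITC-LANA1-23 probe | medium = TEN-BT buffer, pH 7.5 | doses = single compound addition by pin transfer, 100 nL per well | timing = 10–45 min, room temperature | detection = fluorescence polarization | repeats = duplicate plates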
BasE inh: BasE siderophore enzyme inhibitors, primary screen, biochemical, Acinetobacter baumannii ATCC 17978, fluorescence polarization. purified BasE, fluorescence polarization binding displacement. inhibition, % (concentration not given with the values). actives 0.1% (n = 84,000). AID 485350, 2010;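 active = both replicates above 25% with normal brightness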;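 note: 0% = negative plate control signal and 100% = positive plate control signal; stock transfer was 100 nL into about 30 µL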
The depositor's hits bear a star; / = not tested or not shown; & = joins results of further samples.

Results follow in this order: LANA-nucl inh | BasE inh
O=C1CC(c2ccsc2)c2c(-c3ccccc3)nn(-c3ccccc3)c2N1 (stereo not given)
    -0.0585 | 0.2
CN(Cc1nc(-c2ccccc2)no1)C(=O)CC1CCCCC1
    -2.25 | 1.7
Cc1no[n+]([O-])c1COc1cccc(/C=C2\SC(=S)NC2=O)c1
    / | 4.4
N#Cc1ccc(OCC(=O)N=Nc2[nH]c(N)c3ccccc23)cc1
    / | -0.8
CCOC(=O)c1c(CS(=O)c2ccc(Cl)cc2)oc2c(F)c(F)c(F)c(F)c12 (stereo not given)
    / | 1.7
CC(C)C(=O)CC(c1ccccc1)C1C(=O)NC(=O)NC1=O (stereo not given)
    0.131 | 0.3
Cc1ccn2c(=O)cc(CNCC3(N4CCCCC4)CCCCC3)nc2c1
    / | 2.6
S=C(NC1CC1)N(Cc1ccco1)Cc1cccs1
    / | 0.6
C/C(=N\NC(=O)C1CC1)c1ccc(Cl)s1
    / | 2.4
Nc1ccc(S(=O)(=O)Nc2ncccn2)cc1
    0.144&0.276&1.08&0.737 | -0.4&-4.5
NC(=O)c1ccc(NC(=O)CCC(=O)N2CCN(S(=O)(=O)c3ccc(Cl)cc3)CC2)cc1
    / | 2.5
COC1=C2C[C@@H](C)C[C@H](OC)[C@H](O)[C@@H](C)/C=C(\C)[C@H](OC(N)=O)[C@@H](OC)/C=C\C=C(/C)C(=O)NC(=CC1=O)C2=O
    -0.104 | -0.9
COc1cccc(-c2nnc(NC(=O)c3ccc(S(=O)(=O)N(Cc4ccccc4)C(C)C)cc3)o2)c1
    -0.228 | 5.1
CC(C)C(=O)N1N=C(c2ccccc2)CC1(O)C(F)(F)F (stereo not given)
    / | 3.3
Cc1ccc(Cn2nccc2NC(=O)c2cccnc2Nc2ccccc2F)o1
    / | -1.7

One compound at a time, from the list above. Order of values: LANA-nucl inh, BasE inh
CN(Cc1nc(-c2ccccc2)no1)C(=O)CC1CCCCC1 is listed with -2.25, 1.7
NC(=O)c1ccc(NC(=O)CCC(=O)N2CCN(S(=O)(=O)c3ccc(Cl)cc3)CC2)cc1 is listed with /, 2.5
O=C1CC(c2ccsc2)c2c(-c3ccccc3)nn(-c3ccccc3)c2N1 (stereo not given) is listed with -0.0585, 0.2
N#Cc1ccc(OCC(=O)N=Nc2[nH]c(N)c3ccccc23)cc1 is listed with /, -0.8
C/C(=N\NC(=O)C1CC1)c1ccc(Cl)s1 is listed with /, 2.4

Other compounds follow:
Results follow in this order: LANA-nucl inh | BasE inh
O=C1CC(c2ccccc2)CC(O)=C1C=NCc1cccc(C(F)(F)F)c1 (stereo not given)
    / | 1.5
Cc1cc(C(=O)/C(C#N)=N/Nc2cccc(Cl)c2)n(C(C)(C)C)n1
    -0.384 | 4.3
CC(C)NC(=O)NNc1c(Cl)cccc1Cl
    -0.109 | -3.1
C#CCOC(=O)Nc1cnc(N2CCOCC2)c(C(F)(F)F)c1
    0.693 | 1.4
CCOC(=O)CSc1nc(=O)cc(N)n1CCc1ccccc1
    -0.965 | -3.3
CC(C)=NOC(=O)c1ccc(CSc2ccc(C(F)(F)F)cn2)o1
    -0.744 | 2.4
O=c1[nH]c(O)c(C=Nc2cc(C(F)(F)F)ccc2N2CCCCC2)c(=O)[nH]1
    / | -3.6
O=S(=O)(NC(c1ccccc1)c1ccccc1)c1ccc(-n2cnnn2)cc1
    -0.354 | 2.9
NC(=O)CN1C(=O)COc2ccc(Cl)cc21
    -0.331 | -0.5
Cn1ccsc1=NC(=O)c1ccc(S(C)(=O)=O)cc1
    / | -4.8
CC(=O)N1c2ccc(S(=O)(=O)N(C)c3ccc(C)cc3)cc2CC1C (stereo not given)
    -1.3 | 1.0
CC1=C(O)C(=O)OC1c1c(F)cccc1Cl (stereo not given)
    / | -1.1
CC1(C)CC(=O)C2=C(C1)N(c1ncn[nH]1)C(N)=C(C#N)C2c1ccsc1 (stereo not given)
    / | 0.7
C=CCSc1n[nH]c(=O)n1-c1cccc(Cl)c1
    / | -0.6
c1csc(-c2csc3nc(CN4CCOCC4)nc(Sc4nnc(C5CC5)o4)c23)c1
    / | -2.3

Copied from above, two compounds:
Results follow in this order: LANA-nucl inh | BasE inh
C=CCSc1n[nH]c(=O)n1-c1cccc(Cl)c1
    / | -0.6
c1csc(-c2csc3nc(CN4CCOCC4)nc(Sc4nnc(C5CC5)o4)c23)c1
    / | -2.3

(list continues)
Results follow in this order: LANA-nucl inh | BasE inh
CC1=C/C(=N/NC(=O)Cc2csc(N3CCOCC3)n2)CC(C)(C)C1
    / | 0.0
C=CCNC(=O)CN1CCN(S(=O)(=O)c2ccccc2C(F)(F)F)CC1
    / | 1.0
CC1=CS/C(=C(/C#N)C(=O)N2CCCCC2)N1c1ccccc1
    0.388 | 2.7
c1ccc2c(c1)COC(CN1CCOCC1)OC2
    -0.0305 | 2.5
CSc1nnc(CNC(=O)NCc2ccccc2)n1C(C)C
    -0.453 | 1.1
CN(C)Cc1ccccc1C#N
    / | -0.3
O=C(Nc1ccccc1)N1CCn2cccc2C1c1ccccc1 (stereo not given)
    0.324 | 2.4
CN(C)CCC(c1ccccc1)c1ccccn1 (stereo not given)
    0.327&-0.379&1.06 | -2.5&-2.0
COc1cc(/C=C2/C(=O)ON=C2C)cc(Cl)c1OCc1ccc(C)cc1
    / | 1.7
CCOC(=O)C1=C(c2ccccc2)N=C2SCC(=O)N2C1c1ccc(OCC)cc1 (stereo not given)
    / | -0.4
COc1ccccc1CN(C)C(=O)c1cnc(C)cn1
    / | 1.5
CCCCNC(=O)Cn1ncc2c(=O)oc3ccc(C)cc3c21
    -0.191 | 2.8
O/N=C/c1c(F)cccc1F
    / | 1.9
O=C(c1nn(Cc2ccccc2)c(=O)c2ccccc12)N1CCCCC1
    / | -1.1
CCn1c(=O)cc(Nc2ccc(C)c(C)c2)[nH]c1=O
    2.09 | -3.2
CCCNC(=O)C1CCN(c2nn3cc(-c4ccc(F)cc4)nc3s2)CC1
    -0.276 | 0.5
C=CCn1c(SCC(=O)c2ccc(OC)cc2)nnc1-c1cccs1
    -0.154 | -5.3
O=C(N[C@@H](Cc1ccccc1)C(=O)N1CCN(c2ncccn2)CC1)c1ccc(Cl)cc1
    / | -0.2
CN(C)c1ccc(/C=N/NC(=O)c2ccn(C)n2)cc1
    0.216 | 3.4
COc1cc(OC)cc(C(=O)N(C)CCOc2ccc(Cl)cc2)c1
    / | -0.3
O=C(O)c1cc(=O)[nH]c2ccc(S(=O)(=O)N3CCOCC3)cc12
    / | -0.6
Cc1onc(-c2ccccc2)c1C(=O)N(Cc1ccccc1)Cc1ccccc1
    / | -2.1
C=CCn1c(CC(C)(C)C)nc2ccccc21
    -0.0735 | 1.3
O=C(OCc1nc2ccccc2s1)c1cccc(S(=O)(=O)N2CCCC2)c1
    / | 1.4
O=C(CN1C(=O)/C(=C/c2ccccc2F)Oc2ccccc21)NCCCN1CCCC1
    -0.0315 | -6.5
O=C1CC(c2ccco2)CC(O)=C1C=NCC1CCNCC1 (stereo not given)
    -0.0415 | -2.4
COC(=O)CCCN=C1SCCN1Cc1ccccc1
    / | -0.1
COC(=O)c1ccccc1N1CC(C)(C)C1=O
    -0.335 | /
Cc1cc(C)n(CCOc2ncc(C(F)(F)F)cc2Cl)n1
    -0.277 | /
CSc1cc(C(C)(C)C)nn1S(=O)(=O)c1ccc(F)cc1F
    / | 1.0
Cc1cc(C)cc(C(=O)Nc2cc(C)c3c(=O)oc4ccccc4c3n2)c1
    -0.346 | -1.1
CN1/C(=C\C(=O)Cn2nnc(-c3ccccc3)n2)C(C)(C)c2ccccc21
    / | 0.8
CCn1c(-c2ccccc2)n[nH]c1=S
    -0.0355 | 1.8&2.7
COc1ccc(C(C)(C)C)cc1NC(=O)COC(=O)C(C)C
    / | 1.8
Cc1cc(C(=O)CSc2nc(N)nc(N)n2)c(C)n1C1CCS(=O)(=O)C1 (stereo not given)
    / | 1.4
CCN(CC)C(=O)COc1coc(CN2CCN(c3ccccc3)CC2)cc1=O
    0.357 | 2.7
CCOC(=O)c1sc(NC(=O)c2cccs2)cc1C
    / | -3.6
CC(SCc1n[nH]c(=O)[nH]1)C(=O)Nc1nccs1 (stereo not given)
    -1.12 | 1.9
Cc1ccc2nc(C)c(CN3CCN(C(=O)/C=C/c4ccc(C#N)cc4)CC3)n2c1
    / | 2.0
Cc1cc(C)n(-c2nnc(C)n2NS(=O)(=O)c2ccc(F)cc2)n1
    0.685 | 0.9
COc1ccc(C(NC(C)=O)c2ccc3cccnc3c2O)cc1 (stereo not given)
    -0.813 | 2.4
CC1(C)C(c2ccccc2)=[N+]([O-])C2(CCCCC2=O)N1O (stereo not given)
    -0.482 | -0.8
Cc1onc(-c2ccccc2)c1C(=O)N1CCNCC1
    0.706 | /
O=C(NCCN1CCOCC1)c1cccc2c1OCCCO2
    0.324 | 1.0
Cc1cc(C)cc(OCC(=O)NCCN2CCOCC2)c1
    -0.357 | 1.6

New compounds follow:
canonical_smiles | LANA-nucl inh | BasE inh
CCOC(=O)C1=NN(c2ccccc2)C(=O)C12CC(C)=C(C)CS2 (stereo not given) | / | 0.9
CSc1nn(-c2ccccc2)cc1-c1nc(-c2ccccc2)cs1 | / | 4.0
O=C(NC1CCCCCC1)c1cc2ccccc2c(=O)[nH]1 | / | -1.1
CC1(C)CC(=O)C(C=NCc2ccc(F)cc2)=C(O)C1 | / | 2.3
COCCNC(=O)c1cc(-c2ccncc2)nc2ccc(S(=O)(=O)N3CCOCC3)cc12 | 0.588 | 2.7
C/C(=N\OCC(=O)O)c1ccc(Br)s1 | / | -0.6
CSc1ccccc1NC(=O)CN1CCCC1 | / | -0.3
CC(C)N1CCN(S(=O)(=O)c2ccc(Cl)cc2)CC1 | 0.965 | 3.0
Clc1ccc(-n2ncc3c(N4CCCC4)ncnc32)cc1 | -1.12 | 3.2
CCc1ccc(Oc2coc3cc(OC(=O)c4cccs4)ccc3c2=O)cc1 | / | -2.0
Clc1ccccc1CNCc1ccncc1 | 0.297 | 0.2
Brc1ccccc1-c1nc2ccccc2c2nc3ccccc3n12 | / | -0.8
CC(=O)NCc1ccc(C(=O)COC(=O)/C=C/c2cccs2)o1 | / | -0.1
Cc1ccc(NC(=O)CN(C)C(=O)Cc2c[nH]c3ccccc23)cc1 | / | 1.8
CCOC(=O)CC1=CSC2=NCCN12 | -0.613 | 0.9
COc1ccc(OC(=O)c2cc3ccccc3o2)cc1 | / | -0.6
O=C1CCCN1CN1CCN(CN2CCCC2=O)CC1 | 0.073 | -1.2
CCOc1cccc(/C=N/NC(=O)c2[nH]nc(-c3ccccc3)c2C)c1O | -0.056 | 1.9
N#Cc1ccccc1NC(=O)CSc1ccccn1 | / | 1.9
CCN(Cc1ccncc1)S(=O)(=O)c1cc(C(C)(C)C)ccc1C | / | 1.6
O=C(c1ccco1)c1cn(CC(=O)N2CCc3ccccc3C2)c2ccccc12 | -0.401 | -4.3
COc1ccc(CNCCN(C)C)cc1OC | 0.388 | -3.1
CCOC(=O)c1c(-c2ccccc2)c2cc(Cl)ccc2[nH]c1=O | / | 1.2
COc1ccc(C)cc1Nc1nnc(C)c(=O)[nH]1 | 0.138 | 0.3
Cc1ccc(S(=O)(=O)N2CCOCC2)cc1C(=O)OCc1nc2ccc(Cl)cc2n1CCO | / | -3.4
CC(C)(C)OC(=O)N1CC=C2C(C1)C(c1cccc(F)c1)C(C#N)=C(N)C2(C#N)C#N (stereo not given) | 1.8 | -12.4
CCCn1nc(C(=O)N(C)Cc2cccs2)c2ccccc2c1=O | / | -2.5
O=C(N1CCCCC1)N1CCN(S(=O)(=O)N2CCCCC2)CC1 | -0.236 | -0.1
CN(C)c1ccc(C(=O)NCc2ccc3c(c2)CCO3)cc1 | 2.36 | -2.9
Cc1nn(-c2ccc(F)cc2)c(Cl)c1C(=O)OCC#N | / | 0.7
CC1(C)S[C@@H]2[C@H](NC(=O)[C@H](C(=O)O)c3ccsc3)C(=O)N2[C@H]1C(=O)O | -1.5 | -0.4
Cc1cc(C)n(CC(=O)Nc2ccccc2C)c(=O)n1 | -0.0935 | -1.5
Cc1ccnc(NC(=O)CCSc2ccccc2)c1 | 0.236 | 0.6
CCOc1ccc(NC(=O)CSc2nc(=O)n(Cc3ccco3)c3c2CCCC3)cc1 | 0.826 | -2.0
CN(C)C(=O)CN(C#N)c1nc(Cl)nc(N(C)C)n1 | 0.529 | -2.0
O=C1NC2(CCCCC2)C(=O)N1Cc1nnc(-c2ccccc2)o1 | / | -0.5
CCCCc1nnc(NC(=O)CCN2C(=O)/C(=C\c3ccco3)SC2=S)s1 | 0.195 | 0.6
O=C(CCCn1c(=O)oc2ccccc21)N1CCc2ccccc2C1 | / | -1.2
N#CNC1=NC(c2ccccc2)C2=C(N1)/C(=C\c1ccccc1)CCC2 (stereo not given) | / | 2.3
COc1ccc(C2=NN(C(=O)CNc3cccc4ccccc34)C(c3ccco3)C2)cc1 (stereo not given) | / | 0.8
Cc1ncc(C[n+]2csc(CCO)c2C)c(N)n1 | 0.0905 | -1.1
CCCN1C(=O)/C(=C/c2cc(Br)c(O)c(OCC)c2)NC1=S | 7.89 | -36.1
CCOC(=O)c1cnc2c(ccc3ccccc32)c1NCC(C)C | / | -3.7
COc1ccc2oc(C)c(C(=O)CSc3ccccc3)c2c1 | / | 2.3
CCCCNC(=O)c1ccc2[nH]c(C)c(C)c2c1 | 0.521 | -0.8
Brc1cccc(-c2nnc(CN3CCc4ccccc4C3)o2)c1 | -0.861 | 0.6
COC(=O)C1CN(C(=O)c2cccs2)c2ccccc2O1 (stereo not given) | 0.901 | -1.6

This is a subset, so the mix of outcomes need not match the whole.
